Source: PubChem BioAssay
Arbovirus inh = blocks arbovirus infection. arbovirus infection cell-based antiviral screen. inhibition, % at 10 µM. actives 0.37% (n = 200,000);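 active = inhibition from about 30%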;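 also: bluetongue infection of BSR cells; cell survival read as ATP light after 72 h; 0% = infected wells without compound and 100% = uninfected wells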
Mtb growth = M. tuberculosis H37Rv growth inhibitors, H37Rv strain (AID 1626); M. tuberculosis H37Rv growth inhibition; higher % means a stronger effect; one-dose inhibition, % at 10 µM; IC50 in µM for titrated hits; actives 0.95% (n = 220,000);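 active = confirmed in a dose series; inconclusive = inhibition above 80% but not taken into the dose series; inactive = below 80% or under 30% at every dose of the series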;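 also: bacteria incubated seven days before Alamar blue readout; 0% = bacteria only wells and 100% = bacteria with antibiotic wells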
Mtb betalactam = beta-lactam sensitization of Mtb H37Rv | M. tuberculosis H37Rv growth with meropenem, percent inhibition; hits of this screen are not shown here | inhibition, % at 25 µM | actives 0.27% (n = 330,000) | AID 434955;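 active = about 74% or more and at least 40 points above the plate without the antibiotic, then above 30% in a dose series; inconclusive = first-round hits that could not be retested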;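 also: growth measured after seven days incubation then overnight dye step; 0% = bacteria only wells and 100% = bacteria with antibiotic; twin plates without the antibiotic show which effects depend on it; some results filed as inactive read as strong as hits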
RecA intein inh = inhibitors of M. tuberculosis RecA intein splicing; P9WHJ3; cell-free RecA intein splicing, fluorescence; inhibition, %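 (about 9 µM by stock and volumes)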; actives 0.75% (n = 290,000); AID 2221; in the data active = inhibition above about 30%; inconclusive = no clear call, values can overlap the other calls;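 also: 0% = vehicle wells and 100% = reference inhibitor control wells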
Target sequence (P9WHJ3 whole entry, looked up): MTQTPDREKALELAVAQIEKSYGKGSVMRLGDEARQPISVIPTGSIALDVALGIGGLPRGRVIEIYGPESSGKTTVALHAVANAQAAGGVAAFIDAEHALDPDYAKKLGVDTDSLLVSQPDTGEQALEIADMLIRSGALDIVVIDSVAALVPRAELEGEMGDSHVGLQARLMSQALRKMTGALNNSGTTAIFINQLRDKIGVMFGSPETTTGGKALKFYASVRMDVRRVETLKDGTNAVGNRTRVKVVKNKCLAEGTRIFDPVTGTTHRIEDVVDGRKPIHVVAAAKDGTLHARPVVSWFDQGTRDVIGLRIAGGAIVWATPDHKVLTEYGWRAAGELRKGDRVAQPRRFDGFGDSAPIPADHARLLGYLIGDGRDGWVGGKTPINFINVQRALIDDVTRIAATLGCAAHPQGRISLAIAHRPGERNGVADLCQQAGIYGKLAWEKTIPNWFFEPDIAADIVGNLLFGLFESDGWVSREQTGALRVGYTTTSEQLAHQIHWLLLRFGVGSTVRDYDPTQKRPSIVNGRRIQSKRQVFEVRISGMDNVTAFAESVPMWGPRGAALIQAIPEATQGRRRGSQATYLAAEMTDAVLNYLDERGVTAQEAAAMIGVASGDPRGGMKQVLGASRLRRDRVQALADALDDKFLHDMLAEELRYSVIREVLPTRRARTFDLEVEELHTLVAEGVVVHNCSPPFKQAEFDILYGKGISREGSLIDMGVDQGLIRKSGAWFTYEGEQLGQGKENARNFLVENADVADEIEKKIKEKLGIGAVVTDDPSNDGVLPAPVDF
YopH inh = inhibitors of Yersinia enterocolitica YopH tyrosine phosphatase; fluorescence Ex485/Em525; inhibition, %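 (about 10 µM by stock and volumes)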; actives 0.16% (n = 140,000);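 active = inhibition of 50% or more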;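 also: controls were vehicle for no effect and minimum signal wells for full effect; inactives centre near -20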
Arbovirus inh repeat = further read-out of Arbovirus inh, marked with its call; inhibition, %; measured here: 10K subset replicate screen; many hits read low in the repeat;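 first of two repeat runs on a subset; 0% = infected and 100% = uninfected wells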
Numbers without * were called inactive; ? = inconclusive; . = no result given. Only part of the results is shown; rates above refer to the full screens.

SMILES	Arbovirus inh	Mtb growth	Mtb betalactam	RecA intein inh	YopH inh	others
COc1ccc(Cn2cc(F)c(=O)n(C)c2=O)cc1[N+](=O)[O-]	.	-6%	4	2.3	.
CN(c1ccccc1)S(=O)(=O)c1ccc(C(=O)NCCc2ccccc2)cc1	.	.	2	6.0	.
NC(CC(=O)O)c1ccc(F)cc1 (stereo unspecified)	-4	4%	3	0.6	-12
CCOc1ccc(C(=O)NC(=S)Nc2cccnc2)cc1[N+](=O)[O-]	-1	-4%	3	0.4	.
CSc1ccc(CNc2ccccc2)cc1	-2	1%	3	4.4	-4
CC(C)CC1CC(C)(c2csc(NNC(=O)c3ccccc3)n2)OC1=O (stereo unspecified)	-5	2%	-1	-0.8	.
Cc1cc(C(=O)CSc2nnc(-c3ccccc3)n2C)c(C)n1C	6	3%	-15	.	-37
CC(=O)N1c2ccc(S(=O)(=O)N3CCCC3C(=O)NCc3ccc(Cl)cc3)cc2CC1C (stereo unspecified)	.	.	?	1.7	.
O=c1cc(O)c2sc3nc(-c4cccnc4)cc(C(F)(F)F)c3c2[nH]1	-14	-3%	98	-14	-19
COc1ccc(N2CCN(C(=O)c3cn(C4CCCC4)c(=O)c4c3c3ccccc3n4C)CC2)cc1	-18	.	0	11	-7
CCN1CCc2c(sc(NC(=O)c3ccc(S(=O)(=O)N(C)CC4CCCO4)cc3)c2C(N)=O)C1 (stereo unspecified)	.	.	?	1.1	.
COc1ccc(C(=O)NC2(C(F)(F)F)NC(=O)N(CCCc3ccccc3)C2=O)c(OC)c1OC (stereo unspecified)	0	.	-7	0.1	-7
COc1ccc(C2(C(N)=O)CCCCC2)cc1OC	-6	4%	-3	-1.5	-51
O=C(c1ccc(COc2ccccc2Br)cc1)N1CCCCC1	-33	10%	26	5.7	5
Cc1noc(C)c1S(=O)(=O)N1CCCC1C(=O)O (stereo unspecified)	.	.	-7	-0.6	.
COc1ccc(C)cc1NC(=O)c1ccc2c(c1)OCO2	2	-10%	6	1.0	-2
C=CCn1c(O)c(/C=N/NC(=O)CCCC)c(=O)[nH]c1=S	-3	6%	5	.	.
C=CC(=O)NN(C)c1ncc(C(F)(F)F)cc1Cl	6	4%	-8	-3.2	.
COC(=O)c1[nH]c2ccc(C)cc2c1NC(=O)NC1CCCCC1	-20	-4%	-1	-16	-12
CCOc1ccccc1-n1c(SCC(=O)N2CCCC2)nnc1-c1ccoc1C	0	2%	-2	5.3	-50
COc1ccc(/C=N/NC(=O)c2cc(C34CC5CC(CC(C5)C3)C4)[nH]n2)cc1O	-29	-1%	63	-0.7	-29
CCN(CC)C(=O)c1cn(-c2ccccc2)nc1-c1ccc2c(c1)OCCO2	-3	10%	4	3.1	.
O=C(CSc1nc2c([nH]c3ccccc32)c(=O)n1-c1ccccc1F)NCC1CCCO1 (stereo unspecified)	.	.	?	1.7	.
CCc1ccc(NC(=O)Cn2c(SC)nc3ccccc32)cc1	12	3%	57	1.5	-23
CCCCCCCc1c(O)nc(SCCN2CCOCC2)[nH]c1=O	8	-7%	-10	1.5	.
O=C(CSc1nncs1)NCCCc1ccccc1	17	7%	2	0.4	.
CCOC(=O)c1c(C)[nH]c(C(=O)Cn2nnc(-c3ccccc3Cl)n2)c1C	6	-8%	-9	-2.0	-14
CCn1ncc(CN2CCCC(CNC(=O)c3ccc(F)cc3)C2)c1C (stereo unspecified)	2	5%	1	2.2	.
Cc1cccc(NC(=O)CSc2nc(N)c(NC(=O)c3cccs3)c(=O)[nH]2)c1C	-1	-3%	-2	-7.0	-1
Cc1ccccc1Nc1nc(-c2cccnc2)cs1	.	.	1	2.9	.
C#CCNC(=O)C1=C[C@@H](C)C[C@@H](OCc2ccc(CO)cc2)O1	7	-13%	-1	-0.6	.
Nc1ccc(-n2cnc3cc([N+](=O)[O-])ccc32)cc1	-4	4%	7	0.3	8
CC1CCN(CCc2nc3cc(NS(=O)(=O)c4ccc(F)cc4)ccc3n2C)CC1	0	-6%	81	6.3	28
COc1ccc(C(=O)NCC(C)(C)SCc2c(C)cc(C)cc2C)cc1	46*	12%	6	-2.5	-27
CN(C)c1cccc(C(=O)N2CCCC(CCC(=O)N3CCN(c4ccccn4)CC3)C2)c1 (stereo unspecified)	.	.	-4	-1.5	.
COC(=O)c1cc(OC)c(OC)cc1NC(=O)c1ccoc1C	-1	1%	.	-2.0	-15
C#CCn1cccc(C(=O)Nc2ccc(OC)cc2)c1=O	.	.	-3	-1.8	.
CCOc1ccc(S(=O)(=O)N2CCCC(C(=O)NC3CCCC3)C2)cc1 (stereo unspecified)	.	.	5	0.9	.
Cn1c(SCC(N)=O)nnc1C1CCN(C(=O)NC2CCCCC2)CC1	4	7%	4	-1.2	-30
COc1cccc(N2C(=NC(=O)CCC3CCCC3)SC3CS(=O)(=O)CC32)c1 (stereo unspecified)	.	.	-2	-6.9	.
CCn1cc(C(=O)N(CCCN2CCOCC2)Cc2ccco2)c(=O)c2ccc(C)nc21	10	2%	-11	2.2	-39
Cc1ccc(S(=O)(=O)NCC(=O)N(CC(=O)NC2CCCC2)c2ccc3c(c2)OCCO3)cc1	-2	-3%	.	-0.7	-22
O=C1CC(N2CCN(c3ccccn3)CC2)C(=O)N1CC(c1ccccc1)c1ccccc1 (stereo unspecified)	-5	-2%	1	0.7	-12
COc1cc(OC)cc(Oc2ccc(S(=O)(=O)N3CCCCC3)cc2[N+](=O)[O-])c1	.	.	2	2.2	.
CCN(C(=S)NCCOC)c1cccc2ccccc12	2	1%	10	0.6	.
Cc1cc(C)c2[nH]c(=O)c(CN(CC3CCCO3)C(=O)c3cnccn3)cc2c1 (stereo unspecified)	-1	-5%	-20	-1.7	-31
Cn1c(=O)c2c([nH]c(=O)n2C)n(Cc2ccccc2)c1=O	.	.	-8	-1.4	.
S=c1[nH]cc(-c2ccc(Cl)cc2)n1Cc1ccccc1	.	9%	-1	-0.2	.
CN(CC(=O)Nc1ccc(F)cc1)C(=O)c1ccc(-c2ccc(Cl)cc2)o1	.	.	-2	1.0	.
O=C(c1cc(COc2cccc(C(F)(F)F)c2)on1)N1C[C@H]2CC[C@H]1C2	.	.	4	1.7	.
Cc1csc(NC(=O)C2C3C=CC(O3)C2C(=O)O)n1 (stereo unspecified)	-3	-9%	-6	-2.5	-19
NC(=O)CSc1nnc(-c2cccnc2)n1CCc1ccccc1	3	-5%	?	-2.2	-3
CCS(=O)(=O)N1Cc2ccccc2CC1C(=O)Nc1nc2ccc(C)cc2s1 (stereo unspecified)	3	?	24	-0.6	-27
CCc1sc(C(=O)Nc2ncccc2O)cc1C	.	.	33	-1.0	.
Cc1ccc(NC(=O)COC(=O)C2C3CC4OC(=O)C2C4C3)cc1Cl (stereo unspecified)	.	.	-9	1.0	.
Cc1cc(Cl)c(S(=O)(=O)Nc2ccc3c(c2)OCO3)cc1OCC(N)=O	1	-9%	-8	3.3	-26
COc1ccc(N2CCN(S(=O)(=O)c3ccc4c(c3)NC(=O)C(C)S4)CC2)cc1 (stereo unspecified)	.	.	4	-4.8	.
O=C(NCCCN1CCOCC1)c1ccc(CSc2ccc(Cl)cc2)cc1	-39	7%	3	7.7	.
CCOC(=O)N1CCN(C(=O)c2ccc3c(=O)n(-c4cc(OC)ccc4OC)c(=S)[nH]c3c2)CC1	8	1%	-3	1.2	.
NS(=O)(=O)c1ccc(NC(=S)Nc2ccc(S(=O)(=O)N3CCCC3)cc2)cc1	1	-5%	-2	1.7	.

A draw from above in order of length of the SMILES, low to high.
SMILES	Arbovirus inh	Mtb growth	Mtb betalactam	RecA intein inh	YopH inh	others
S=c1[nH]cc(-c2ccc(Cl)cc2)n1Cc1ccccc1	.	9%	-1	-0.2	.
O=C(NCCCN1CCOCC1)c1ccc(CSc2ccc(Cl)cc2)cc1	-39	7%	3	7.7	.
CCS(=O)(=O)N1Cc2ccccc2CC1C(=O)Nc1nc2ccc(C)cc2s1 (stereo unspecified)	3	?	24	-0.6	-27
COc1cc(OC)cc(Oc2ccc(S(=O)(=O)N3CCCCC3)cc2[N+](=O)[O-])c1	.	.	2	2.2	.
Cc1ccc(S(=O)(=O)NCC(=O)N(CC(=O)NC2CCCC2)c2ccc3c(c2)OCCO3)cc1	-2	-3%	.	-0.7	-22

Quoted at random: 5 records from the list, in no set order.
SMILES	Arbovirus inh	Mtb growth	Mtb betalactam	RecA intein inh	YopH inh	others
CCn1cc(C(=O)N(CCCN2CCOCC2)Cc2ccco2)c(=O)c2ccc(C)nc21	10	2%	-11	2.2	-39
CN(CC(=O)Nc1ccc(F)cc1)C(=O)c1ccc(-c2ccc(Cl)cc2)o1	.	.	-2	1.0	.
CCS(=O)(=O)N1Cc2ccccc2CC1C(=O)Nc1nc2ccc(C)cc2s1 (stereo unspecified)	3	?	24	-0.6	-27
CCN(C(=S)NCCOC)c1cccc2ccccc12	2	1%	10	0.6	.
NS(=O)(=O)c1ccc(NC(=S)Nc2ccc(S(=O)(=O)N3CCCC3)cc2)cc1	1	-5%	-2	1.7	.

Further compounds follow.
SMILES	Arbovirus inh	Mtb growth	Mtb betalactam	RecA intein inh	YopH inh	others
O=C(Nc1ccccc1N1CCCCC1)c1ccc(F)c(S(=O)(=O)N2CCOCC2)c1	.	.	2	-1.2	.
CCCc1ccc(-c2cc(NC(=O)CSc3nnc(N)s3)n(-c3ccccc3)n2)cc1	-34	15%	64	5.4	-33
O=C(c1cc(=O)[nH]c2ccccc12)N(Cc1nnc(-c2ccccc2Cl)o1)C1CC1	.	.	-6	0.7	.
Cc1csc(SCC(=O)N2CCN(S(=O)(=O)c3ccccc3)CC2)n1	8	.	-4	.	-24
O=S(=O)(Cc1cnc(Cl)s1)c1ccccc1	7	-8%	-14	3.3	-35
N#Cc1ccc(OCC(=O)N/N=C2\CCc3ccccc32)cc1	-2	?	34	20	13
O=S(=O)(NCc1cn2ccsc2n1)c1ccc2c(c1)OCCO2	10	2%	0	1.1	6
O=C(Nc1cccc(Cl)c1)c1ccc2ncsc2c1	.	.	-6	2.6	.
O=C(Nc1nc2ccccc2[nH]1)c1cc(F)cc(F)c1	.	.	89	-0.2	.
O=C(CN1CCCC1)NCc1ccccc1	.	.	-5	0.7	.
COc1cccc(CC2(CO)CCCN(Cc3ccc(CN4CCCCC4)s3)C2)c1 (stereo unspecified)	14	0%	2	1.2	.
CN1CCC(C2(O)c3ccccc3CCc3ccccc32)CC1	-5	-5%	6	1.0	-16
CS(=O)(=O)N1CCCC(C(=O)Nc2ccc(F)cc2)C1 (stereo unspecified)	.	.	-7	-4.1	.
O=C1OCCC1Sc1nnc(-c2ccccc2Cl)n1Cc1ccccc1 (stereo unspecified)	-1	-4%	-4	5.9	-3
Cc1ccc(-n2[nH]c(C)c(C=NC34CN5CN(CN(C5)C3)C4)c2=O)cc1C	-10	4%	5	0.8	-18
CCOc1ccc(-c2cc(C(=O)NCC3CCCO3)c3ccccc3n2)cc1 (stereo unspecified)	1	9%	44	-7.5	-17
O=C(CSc1nnc2ccccn12)NNC(=O)c1ccc(F)cc1	9	1%	-2	-0.9	.
O=C(N/N=C/c1ccncc1)c1nn(Cc2ccccc2)c(=O)c2ccccc12	3	-1%	6	-3.2	.
COc1ccc(OC)c(Nc2nc(-c3ccncc3)nc3ccccc23)c1	.	.	2	-19	.
O=C(Nc1ccc2nsnc2c1)c1cccs1	6	-9%	-5	-7.9	-131
N#Cc1c(C(F)(F)F)cc(-c2ccco2)nc1SCc1ccccn1	3	1%	3	-1.2	-13
O=C1CN(c2ccc(F)cc2)C(=S)N1c1ccccc1	.	.	-4	-3.6	.
CN1CCN(CC(=O)N2c3ccccc3C(=O)Nc3cccnc32)CC1	10	.	0	-16	-27
Cc1ccc(C)c(S(=O)(=O)N2CCN(Cc3ccc(O)c4ncccc34)CC2)c1	-24	-2%	3	-1.0	.
COc1ccc(CNCc2cc3c(C(C)(C)C)nn(-c4ccccc4)c3[nH]c2=O)cc1	-19	11µM*	100	10	-7
Cc1nn(C)c(C)c1CCC(=O)N1CCCC(Nc2ccc(C(C)C)cc2)C1 (stereo unspecified)	.	.	-1	-6.7	.
CCC(C)(C(=O)NC1CCCC1)N(Cc1cccs1)C(=O)Cc1cccs1 (stereo unspecified)	-8	-1%	0	0.8	15
CCOC(=O)c1ccc(NC(=O)CSc2nnc(CNC(=O)c3ccccc3F)o2)cc1	0	38%	-2	2.0	2
CCCn1c(NC(=O)c2ccc([N+](=O)[O-])o2)nc2ccccc21	.	.	100	-1.7	.
Cc1sc2nc(SCC(=O)N3CCCC3)[nH]c(=O)c2c1C	4	-4%	3	0.0	-17	Arbovirus inh repeat=3
Cc1cc(C)n(CC(O)CN(c2ccccc2)S(=O)(=O)c2ccccc2)n1 (stereo unspecified)	11	-4%	2	-1.4	-27
N#CCCn1ccc(NC(=O)c2ccc(Cl)cc2)n1	-3	-1%	-8	-3.2	-20
CN(C)c1ccc(/C=N/NC(=O)c2ccc3c(c2)OCCO3)cc1	.	.	-9	0.2	.
